Screens (PubChem BioAssay)
Marburg entry inh: inhibitors of Marburg virus binding or cell entry | Marburg virus pseudotyped entry inhibition, cell reporter; control for the full effect not named in the record; about a third of the inactives were read at about 46 µM | Potency, µM (series often up to 37.8 µM), inactives show at the highest dose activity change, negative = inhibition, actives largely listed as inhibitors | 300,000 compounds, 1.8% hits | AID 540276; active = well fitted inhibition curve with a large enough effect; inconclusive = small, poorly fitted or top-dose-only effect, or effect the other way; inactive = flat fitted curve, though single readings scatter; tested in HEK293 cells; about a fifth of its hits are not listed in these tables; further: on the % scale 0 is the no-effect control and ±100 the full control effect; luciferase read-out
NS1 inh: blocks influenza NS1 protein function | S. cerevisiae slowed by influenza A NS1, growth recovery by OD600 | Potency, µM (titrated, usually from 46.1 µM), for the others: at the highest dose activity, positive = more growth | 270,000 compounds, 0.4% hits | AID 2326; active means well fitted rising curve with a large enough effect; inconclusive means small, poorly fitted or top-dose-only effect; inactive means no such curve, though single readings can be large or run the other way; further: nearly all actives have a fitted effect of over 50% in size
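Read-out: OD600 growth recovery of NS1-expressing budding yeast. Cells grown overnight at 30C in -URA glucose medium, washed, resuspended and diluted 1:100 in 2% galactose assay medium, pH 6.0. Same strain lacking NS1 served as positive control.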
Cruzain noTriton: blocks cruzain activity in detergent-free assay | Potency, µM, without a hit: max response, negative = inhibition, usual class: inhibitors | purified cruzain, Z-FR-AMC fluorescence, no detergent | 200,000 compounds, 2.3% hits | AID 1476;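 further: plate controls were enzyme without inhibitor for no effect and buffer without enzyme for full effect; nearly all actives have a fitted effect of over 40% in size; top concentration of the series not given in the record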
Target sequence (P25779 123-467 limits assumed): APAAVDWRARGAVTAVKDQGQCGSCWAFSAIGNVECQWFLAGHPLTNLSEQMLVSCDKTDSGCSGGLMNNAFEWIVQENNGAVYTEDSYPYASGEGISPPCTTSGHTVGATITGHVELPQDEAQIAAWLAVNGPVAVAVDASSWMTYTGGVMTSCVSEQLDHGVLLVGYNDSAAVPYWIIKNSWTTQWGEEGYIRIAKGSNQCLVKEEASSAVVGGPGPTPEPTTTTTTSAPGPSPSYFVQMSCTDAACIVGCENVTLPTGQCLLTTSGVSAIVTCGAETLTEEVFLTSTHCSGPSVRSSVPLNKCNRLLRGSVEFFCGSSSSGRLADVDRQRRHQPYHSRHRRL
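Detergent-free condition (0.00005% Triton X-100) in acetate buffer pH 5.5 with DTT. 1.5 nM enzyme and compound were pre-mixed 15 min, then 2 uM Z-FR-AMC substrate added; reaction progress from fluorescence change between first and third reads (60 s).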
Cruzain inh Det: inhibitors of Trypanosoma cruzi cruzain with detergent. purified cruzain, Z-FR-AMC fluorescence, 0.01% Triton. Potency, µM, for inactives: max response, negative = inhibition, most hits filed as inhibitors. P25779. 200,000 compounds, 0.43% hits. AID 1478;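 further: plate controls were neutral wells for no effect and buffer without enzyme for full effect; nearly all actives have a fitted effect of over 40% in size; top concentration of the series not given in the record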
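Steps: dispense cruzain (1.5 nM final) in acetate buffer pH 5.5 with DTT and 0.01% Triton X-100; pin-transfer compounds; incubate 15 min RT; add Z-FR-AMC (2 uM final); read fluorescence every 30 s, using the 60 s intensity change.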
2A StopGo: FMDV 2A StopGo reporter, luciferase signal; human cells with a luciferase reporter of 2A StopGo recoding; control for the full effect not named in the record; Potency, µM (doses to about 57.9 µM), for the others: at the highest dose signal change, negative = less light; 410,000 compounds, 1.2% hits; AID 1159524; active = well fitted falling curve with a large enough effect; inconclusive = small, poorly fitted or top-dose-only effect; inactive = no such curve, though single readings can be large or run the other way; tested in HEK293T cells; further: on the % scale 0 is the no-effect control and ±100 the full control effect; nearly all actives have a fitted effect of over 45% in size; luciferase light after 4 h
SARS PLpro yeast: blocks SARS-CoV papain-like protease in a yeast assay; S. cerevisiae expressing SARS-CoV PLpro, growth rescue; control for the full effect not named in the record; Potency, µM (highest dose often 32.9 µM), without a hit: at the top dose activity, positive = growth rescue; 330,000 compounds, 0.19% hits; AID 485353; active means well fitted rising curve with a large enough effect; inconclusive means small, poorly fitted or top-dose-only effect; inactive means no such curve, though single readings can be large or run the other way; further: 0% is about no effect; nearly all actives have a fitted effect of over 55% in size; growth read by luminescence after 48 h
Lassa entry inh: Lassa virus entry inhibition; Lassa virus pseudotype entry inhibition, cell reporter; control for the full effect not named in the record; 300,000 compounds, 1.2% hits; Potency, µM (titrated, usually from 37.9 µM), for the others: top-dose activity change, negative = inhibition, most hits filed as inhibitors; active means well fitted inhibition curve with a large enough effect; inconclusive means small, poorly fitted or top-dose-only effect, or effect the other way; inactive means flat fitted curve, though single readings scatter; tested in HEK293 cells; further: on the % scale 0 is the no-effect control and ±100 the full control effect; nearly all actives have a fitted effect of over 50% in size; luciferase read-out
RE007 growth inh: less growth of the S. pombe RE007 Vpr strain; S. pombe RE007 Vpr strain, BacTiter-Glo ATP luminescence, 24 h; control for the full effect not named in the record; Potency, µM (titrated, usually from 92.2 µM), for the others: at the top dose activity change, negative = less growth; AID 651644; 360,000 compounds, 0.21% hits; active = well fitted falling curve with a large enough effect; inconclusive = small, poorly fitted or top-dose-only effect; inactive = no such curve, though single readings can be large or run the other way;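 further: on the % scale 0 is the no-effect control and ±100 the full control effect; nearly all actives have a fitted effect of over 50% in size; the assay follows cell death caused by Vpr and the record does not say whether a fall means rescue or toxicity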
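Fission yeast strain RE007, carrying one chromosomally integrated HIV-1 vpr copy, was seeded at OD 0.01 in PMG+AL medium with 23 nL pinned compound. After 24 h at 30 °C and 99% humidity, viability was read by BacTiter-Glo luminescence.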
* = called active by the depositor; ? = inconclusive; · = no result given; & = joins results of further samples; [ ] = dose if it differs, or a comment. Unless noted, the call rests on the fitted dose curve; in most records, active means well fitted curve in the direction sought with a large enough effect; inconclusive means small, poorly fitted or top-dose-only effect, or another doubt; inactive means no such curve, though single readings can be large; an effect the other way counts as inactive or inconclusive. Potency means the concentration at half of the fitted maximal effect.

1: COC(=O)c1cccc(NC(=O)c2nn(C)c(=O)c3ccccc23)c1
2: Cc1cccc(OCC(=O)Nc2ccc3c(c2)nc(CCN2CCCCC2)n3C)c1
3: O=C(Cn1cnc2sc3c(c2c1=O)CCCC3)NCC(=O)Nc1ccccc1F
4: CCc1ccc(NC(=O)c2cccnc2)cc1
5: OC1CN=C2Sc3ccccc3N2C1 (stereo not drawn)
6: COc1cccc(OC)c1C(=O)N1CCN(Cc2cccnc2)CC1
Screen / compound no.	1	2	3	4	5	6
Marburg entry inh	-23%	·	·	?	-9%	3%[46.1 µM]
NS1 inh	-23%	-2%	-7%	1%	-15%	16%
Cruzain noTriton	?	·	·	3%	1%	·
Cruzain inh Det	-2.2%	·	·	1.0%	-3.0%	·
2A StopGo	9%	-3%	-22%	48%[activator]	7%	-7%
SARS PLpro yeast	-5%	?	-4%	-4%	-3%	0%
Lassa entry inh	0%	·	·	-6%	2%	20%[46.1 µM]
RE007 growth inh	-5%	1%	2%	-2%	-18%	3%

7: COc1ccc(C(CNC(=O)c2cccc(S(=O)(=O)Nc3ccccc3Cl)c2)N2CCOCC2)cc1 (stereo not drawn)
8: Cc1ccccc1-c1n[nH]c(=S)n1Cc1ccccc1
9: CCc1nc2c(c(=O)c3ccccc3n2C)c(=O)n1-c1ccc(F)cc1
10: Nc1cc(Cl)ccc1Oc1ccccc1
11: CC(C)c1cccc(C(C)C)c1NC1=NS(=O)(=O)c2ccccc21
12: CCN(Cc1ccccc1)C(=O)COC(=O)Cc1c[nH]c2ccccc12
Screen / compound no.	7	8	9	10	11	12
Marburg entry inh	?	-2%[46.1 µM]	2%	-4%	3%[46.1 µM]	-21%
NS1 inh	·	10%	10%	7%	·	·
Cruzain noTriton	·	·	-4%	-5%	-2%	·
Cruzain inh Det	·	·	-0.6%	-7.9%	-3.6%	·
2A StopGo	-21%	-13%	-20%	11%	-5%	-3%
SARS PLpro yeast	0%	2%	-22%	2%	·	5%
Lassa entry inh	-19%	1%	6%	-8%	-8%[46.1 µM]	6%
RE007 growth inh	-5%	-2%	-9%	2%	·	5%

Gathered by group: the entries above with a halogen.
3: O=C(Cn1cnc2sc3c(c2c1=O)CCCC3)NCC(=O)Nc1ccccc1F
7: COc1ccc(C(CNC(=O)c2cccc(S(=O)(=O)Nc3ccccc3Cl)c2)N2CCOCC2)cc1 (stereo not drawn)
9: CCc1nc2c(c(=O)c3ccccc3n2C)c(=O)n1-c1ccc(F)cc1
10: Nc1cc(Cl)ccc1Oc1ccccc1
Screen / compound no.	3	7	9	10
Marburg entry inh	·	?	2%	-4%
NS1 inh	-7%	·	10%	7%
Cruzain noTriton	·	·	-4%	-5%
Cruzain inh Det	·	·	-0.6%	-7.9%
2A StopGo	-22%	-21%	-20%	11%
SARS PLpro yeast	-4%	0%	-22%	2%
Lassa entry inh	·	-19%	6%	-8%
RE007 growth inh	2%	-5%	-9%	2%

The results go on:
13: COc1ccc(Br)cc1CN1CCN(C(=O)c2ccc(OC)c(OC)c2)CC1
14: COc1cccc(-c2noc(Cn3nc(C(=O)O)c4ccccc4c3=O)n2)c1
15: Cc1onc(-c2ccccc2Cl)c1C(=O)O/N=C(\N)c1ccc([N+](=O)[O-])o1
16: CC(C(=O)O)n1nc(-c2ccccc2)c2ccccc21 (stereo not drawn)
17: Cc1sc2ncnc(N3CCCC(C)C3)c2c1C (stereo not drawn)
18: COc1ccc(Cl)cc1NC(=O)Cn1cccc1
Screen / compound no.	13	14	15	16	17	18
Marburg entry inh	?	10%[46.1 µM]	·	·	-8%[46.1 µM]	1%
NS1 inh	-4%	-16%	-8%	-5%	·	-15%
Cruzain noTriton	·	·	·	·	·	2%
Cruzain inh Det	·	·	·	·	·	0.0%
2A StopGo	-26%	2%	?	-17%	?	-6%
SARS PLpro yeast	-1%	11%	-7%	-3%	0%	3%
Lassa entry inh	-29%[46.1 µM]	-2%[46.1 µM]	·	·	-24%[46.1 µM]	16%[14.3 µM]
RE007 growth inh	3%	-24%	-20%	6%	-10%	-18%

19: c1ccc(CSc2ncccn2)cc1
20: Cc1[nH]c(=O)n(C(C)C)c(=O)c1Br
21: CC[C@@H]1C(c2ccccc2)=NN(c2ccc(Br)cc2)[C@H]1C(=O)N1CCOC1=O
22: O=C(/C=C/c1ccccc1)N1CCN(Cc2cc(=O)n3nc(-c4ccccc4F)sc3n2)CC1
23: COc1cc(O)c(C(CC(=O)N2CCOCC2)c2ccc3c(c2)OCO3)c(OC)c1 (stereo not drawn)
24: COC(=O)C1=C(N)Oc2cc(C)n(Cc3ccncc3)c(=O)c2C1c1cccnc1 (stereo not drawn)
Screen / compound no.	19	20	21	22	23	24
Marburg entry inh	?	12%[46.1 µM]	·	·	·	2%&2%
NS1 inh	3%	·	·	·	3%	·
Cruzain noTriton	3%	·	25µM*	19%	·	·
Cruzain inh Det	1.7%	·	-0.6%	0.7%	·	·
2A StopGo	50%[activator]	-10%	-21%	0%	-8%	4%
SARS PLpro yeast	5%	·	-50%	·	-1%	·
Lassa entry inh	-3%	0%[46.1 µM]	·	1%[46.1 µM]	·	6%
RE007 growth inh	-5%	22%	-5%	·	11%	-8%

Remaining list, next part:
Results follow in this order: Marburg entry inh	NS1 inh	Cruzain noTriton	Cruzain inh Det	2A StopGo	SARS PLpro yeast	Lassa entry inh	RE007 growth inh
25) Cc1cc(Cl)cc(C)c1OCCCCCn1ccnc1
  ·	-40%	·	·	?	-2%	·	-5%
26) CCOC(=O)C1CCN(C(=O)Cn2cnc3sc(C)c(S(=O)(=O)N4CCC(C)CC4)c3c2=O)CC1
  -23%[46.1 µM]	5%	·	·	2%	-1%	-1%	8%
27) CC(=O)c1cccc(NC(=O)CN2CCN(Cc3ccccc3)CC2)c1
  6%	-2%	·	·	-6%	-7%	?	-8%
28) COc1ccc(/C=C2\Cc3ccccc3C2=O)cc1OC
  ·	-34%	·	·	43%[activator]	-1%	·	-5%
29) N#CCC(=O)N/N=C/c1cc([N+](=O)[O-])ccc1N1CCCC1
  7%[46.1 µM]	·	·	·	25%	0%	·	0%
30) Clc1ccc2[nH]c3c(NCCCN4CCOCC4)ncnc3c2c1
  ·	-7%	13µM*	16µM*	9%	-1%	?	-6%
31) O=C(O)Cn1c(P(=O)(O)c2ccccc2)nc2ccccc21
  23%	-15%	-7%	1.8%	3%	2%	0%	18%
32) CCOC(=O)CNc1ncc(C(F)(F)F)cc1Cl
  ?	·	·	·	8%	-1%	19%	-15%
33) O=C(Nc1ccccc1F)c1oc2ccccc2c1NC(=O)C1CC1
  ·	-4%	·	·	-8%	1%	·	10%
34) Cc1ccc(C(=O)COC(=O)c2ccc3c(c2)C(=O)N(c2cccc4ncccc24)C3=O)cc1C
  29%	1%	-23%	-7.8%	2%	-2%	-19%	4%
35) CCCOc1ccc(CSC2=NCCN2)cc1[N+](=O)[O-]
  0%	1%	-3%	1.4%	-17%	5%	12%	7%
36) COc1ccc(C(=O)Oc2ccc(C3NC(=O)c4c(sc5c4CCN(C)C5)N3)cc2OC)cc1 (stereo not drawn)
  2%[46.1 µM]	·	-5%	-17%	0%	·	15%[46.1 µM]	·
37) O=S(=O)(Cc1ccccc1)Nn1cnnc1
  -2%	3%	-9%	-3.0%	-19%	6%	1%	-16%
38) COC1=C/C(=C/c2c(O)c(C#N)c3ccccn23)C=CC1=O
  ·	7%	·	·	37%[activator]	-1%	·	-22%
39) COc1ccc(CNC(=O)C/C(C)=N/NC(=O)c2ccc([N+](=O)[O-])cc2Cl)cc1
  15%[46.1 µM]	·	·	·	4%	1%	-2%	2%
40) O=C(COc1ccc(F)cc1)c1c(O)cc(O)cc1O
  ·	?	·	·	44%[activator]	1%	·	-2%
41) CCN(CC(=O)Nc1ccc(NC(C)=O)cc1)C(=O)COc1ccccc1-c1ccccc1
  -4%	·	·	·	-8%	-3%	-15%	-17%
42) CC(/C=C/c1ccccc1)=N\NC(=O)CCc1ccccc1
  ·	0%	·	·	4%	15%	·	19%
43) O=C(Nc1ccc(S(=O)(=O)N2CCOCC2)cc1)C1CCN(S(=O)(=O)c2ccc(F)cc2)CC1
  -7%	·	·	·	0%	-1%	-17%	-8%
44) S=c1[nH]nc(-c2ccco2)n1C1CCCCC1
  14%&14%	?	8%	-2.7%	0%	28%	11%	15%
45) O=C(CN1CCC(NC(=O)c2ccco2)CC1)Nc1ccccc1C(F)(F)F
  2%[46.1 µM]	0%	·	·	-5%	0%	15%[46.1 µM]	5%
46) O=C(O)COCC(=O)NC1CCN(Cc2ccccc2)CC1
  12%[46.1 µM]	-3%	·	·	-4%	-1%	-4%[46.1 µM]	10%
47) Cc1cc2c(cc1S(=O)(=O)CCC(=O)N1CCCCC1C)OCC(=O)N2 (stereo not drawn)
  ·	·	-13%	-5.2%	-17%	·	-29%[46.1 µM]	·
48) CCCCn1c(N)c(N(CC)C(=O)c2ccccc2C(F)(F)F)c(=O)[nH]c1=O
  2%[46.1 µM]	11%	·	·	-3%	2%	4%[46.1 µM]	2%
49) Oc1c(C(c2ccccc2F)N2CCN(Cc3ccccc3)CC2)sc2nc(-c3ccco3)nn12 (stereo not drawn)
  ·	·	4%	-5.5%	22%	·	1%[46.1 µM]	·
50) CCOC(=O)c1ccc2c(c1)nc(SCc1cn3ccsc3n1)n2CC
  16%	-145%	11%	2.7%	-1%	6%	-3%	9%
51) CC(=O)Nc1ccc(S(=O)(=O)N2CCC(n3c(C)nc4cccnc43)CC2)cc1
  ·	·	-4%	1.4%	-22%	·	6%[46.1 µM]	·
52) CN(C(=O)CN(c1ccccc1)S(=O)(=O)c1ccc(F)cc1)C1CCS(=O)(=O)C1 (stereo not drawn)
  ·	2%	·	·	-12%	-2%	·	-13%
53) CN1C(=O)/C(=C/c2cccc(Cl)c2)Sc2ccc(C(=O)N3CCOCC3)cc21
  ·	7%	·	·	-5%	-3%	·	-3%
54) CC(=O)c1nn(-c2ccc(Cl)cc2)cc1C(=O)c1ccc(C)cc1
  2%[46.1 µM]	·	·	·	-20%	·	36%	1%
